Assay outcomes as filed in PubChem BioAssay.
FPR = small-molecule ligands of human FPR – U937-FPR cells, fMLFK-FITC, flow cytometry, primary screen (AID 362); U937-FPR cells, fMLFK-FITC displacement, flow cytometry; stronger effect = higher value; test concentration not given here; most inactive calls were filed without a number and no value below 0 was filed; hit rate 1% among 4,300; inhibition, %;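 active = inhibition of labelled peptide binding to the formyl peptide receptor of at least 65%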;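 note: plate controls were buffer control wells for no effect and unlabeled fMLFF blocking peptide for full effect; higher means less cell fluorescence so more probe displaced; part of the set was picked by virtual screening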
* marks the source's active call; other numbers are inactive results; i = inactive.

SMILES	FPR
CCNCC1(c2ccc(OC)c(OC)c2)CCCC1	i
CC1=C2C(=O)C3C(CC=C4CC(OC5OC(O)C(O)C(O)C5CO)CCC43C)C2CCC12OC1CC(C)CNC1C2C (centres undefined)	i
O=C(CNS(=O)(=O)c1cccs1)N1CC2CC(C1)c1cccc(=O)n1C2 (centres undefined)	3
O=C(Nc1ccc2c(C(F)(F)F)cc(=O)oc2c1)c1cc([N+](=O)[O-])nn1Cc1ccccc1	i

Reprinted at random: two entries already listed.
SMILES	FPR
O=C(Nc1ccc2c(C(F)(F)F)cc(=O)oc2c1)c1cc([N+](=O)[O-])nn1Cc1ccccc1	i
CC1=C2C(=O)C3C(CC=C4CC(OC5OC(O)C(O)C(O)C5CO)CCC43C)C2CCC12OC1CC(C)CNC1C2C (centres undefined)	i

Not all compounds are listed; rates above refer to the full screens.
